Bioassay records from PubChem BioAssay.
Vaccinia stage – blocks a specific stage of Vaccinia orthopoxvirus infection. activity change (mCherry), % (test concentration not listed). Vaccinia-infected cells, mCherry/Venus stage reporter fluorescence; active compounds read low; some inactives read as strong as hits. AID 1053133. 0.01% of 89,000 active;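 active = mCherry past -33% and 40 or more points under the early reporter, replicates agreeing; inconclusive = past -33% without that gap or agreement; tested in A549 cells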;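 note: scaled between vehicle wells and reference inhibitor wells; 23 nL library stock went into each well; one replicate is shown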
Vaccinia stage Venus – recorded beside Vaccinia stage, whose call it bears; activity change (Venus), %; measured here: Venus reporter, other viral stage;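 negative = less Venus signal; first of two replicates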
* = called active by the depositor; & = joins results of further samples. Not all compounds are listed (hit frequency here may not be typical).

Results for C[C@H]1CCCCO[C@@H](CN(C)C(=O)Nc2ccccc2)[C@@H](C)CN([C@@H](C)CO)C(=O)c2cc(NC(=O)CCC(F)(F)F)ccc2O1 ?
Vaccinia stage: -13; Vaccinia stage Venus: -11

Results for C/C=C/c1ccc2c(c1)O[C@@H](CN(C)Cc1cncnc1)[C@H](C)CN([C@H](C)CO)S2(=O)=O ?
Vaccinia stage: 10; Vaccinia stage Venus: -3

What do the screens show for `COc1ccccc1NC(=O)N[C@@H]1C=C[C@@H](CC(=O)NCc2ccc(Cl)c(Cl)c2)O[C@@H]1CO`?
Vaccinia stage: 11; Vaccinia stage Venus: -2

Results for CCCC#Cc1cnc2c(c1)C(=O)N([C@@H](C)CO)C[C@H](C)[C@H](CN(C)C(=O)c1cnccn1)O2 ?
Vaccinia stage: 14; Vaccinia stage Venus: 5

Results for CCS(=O)(=O)N1CCC2(CC1)CN(S(=O)(=O)c1ccc(C)cc1)[C@H](CO)c1[nH]c3cc(OC)ccc3c12 ?
Vaccinia stage: 7; Vaccinia stage Venus: -11

What do the screens show for `O=S(=O)(N[C@H]1CC[C@@H](CCn2cc(-c3ccccc3F)nn2)O[C@@H]1CO)c1ccc(Cl)cc1`?
Vaccinia stage: inconclusive

How did C[C@@H]1CN([C@H](C)CO)C(=O)c2cc(NC(=O)CCCCCC(=O)Nc3ccccc3N)ccc2O[C@@H]1CN(C)S(C)(=O)=O do in these assays?
Vaccinia stage: 10; Vaccinia stage Venus: 13

Results for CCC(=O)N[C@@H]1CC[C@H](CC(=O)NCc2ccccc2OC)O[C@@H]1CO ?
Vaccinia stage: -4; Vaccinia stage Venus: 3

What do the screens show for `COc1cccc(-c2cnc3c(c2)C(=O)N([C@@H](C)CO)C[C@H](C)[C@H](CN(C)C(=O)Nc2ccccc2F)O3)c1`?
Vaccinia stage: -11; Vaccinia stage Venus: 4

How did CC(C)C#Cc1cnc2c(c1)C(=O)N([C@@H](C)CO)C[C@@H](C)[C@H](CN(C)Cc1ccccc1F)O2 do in these assays?
Vaccinia stage: -14; Vaccinia stage Venus: -5

How did O=C(c1cnccn1)N1CC[C@H]2[C@H](CO)Nc3ccc(C#Cc4cccnc4)cc3[C@H]21 do in these assays?
Vaccinia stage: 7; Vaccinia stage Venus: 10

Results for O=C(C1CCCC1)N1CCCCN2[C@H](CO)[C@@H](c3ccc(C#CC4(O)CCCC4)cc3)[C@H]2C1 ?
Vaccinia stage: -20; Vaccinia stage Venus: -17

How did C[C@@H]1CCCCO[C@H](CN(C)C(=O)C2CCCCC2)[C@H](C)CN([C@H](C)CO)C(=O)c2cc(NC(=O)Cc3ccccc3)ccc2O1 do in these assays?
Vaccinia stage: inconclusive

How did C[C@@H]1CN([C@H](C)CO)S(=O)(=O)c2ccc(C#CCN(C)C)cc2O[C@H]1CN(C)Cc1ccccc1F do in these assays?
Vaccinia stage: -23; Vaccinia stage Venus: -23

What do the screens show for `C[C@@H]1CCCCO[C@@H](CN(C)S(=O)(=O)c2ccc(F)cc2)[C@@H](C)CN([C@H](C)CO)C(=O)c2cc(NS(=O)(=O)c3cn(C)cn3)ccc2O1`?
Vaccinia stage: 5; Vaccinia stage Venus: 8

Results for O=C(C[C@@H]1C=C[C@@H](NS(=O)(=O)c2ccccc2)[C@H](CO)O1)NCc1ccccc1F ?
Vaccinia stage: 2; Vaccinia stage Venus: -3

What do the screens show for `O=C1CN(S(=O)(=O)Cc2ccccc2)C[C@@H]2[C@H](c3ccc(C#Cc4cccc(F)c4)cc3)[C@@H](CO)N12`?
Vaccinia stage: inconclusive

Results for CCCNC(=O)C[C@H]1CC[C@@H]2[C@@H](COc3ccc(NC(=O)NC(C)C)cc3C(=O)N2C)O1 ?
Vaccinia stage: 10; Vaccinia stage Venus: -5

How did Cc1ccccc1-c1cnc2c(c1)C(=O)N([C@H](C)CO)C[C@@H](C)[C@H](CN(C)C(=O)c1ccncc1)O2 do in these assays?
Vaccinia stage: 5&9; Vaccinia stage Venus: 6&9

Results for O=C(NCc1ccc(F)cc1)[C@H]1C[C@H]2C(=O)N3CCC[C@H]3C(=O)N2[C@H]1c1ccc(O)cc1 ?
Vaccinia stage: 16; Vaccinia stage Venus: 14

What do the screens show for `CC(C)c1cn(CC[C@@H]2CC[C@H](NC(=O)C3CC3)[C@H](CO)O2)nn1`?
Vaccinia stage: 10; Vaccinia stage Venus: 16

Results for C[C@H]1CCCCO[C@H](CN(C)C(=O)Nc2ccc(C(F)(F)F)cc2)[C@@H](C)CN([C@@H](C)CO)C(=O)c2cc(NC(=O)CCC(F)(F)F)ccc2O1 ?
Vaccinia stage: -30; Vaccinia stage Venus: -28

Results for C[C@H](CO)N1C[C@H](C)[C@H](CN(C)Cc2ccncc2)Oc2ccc(NC(=O)CCCCCC(=O)Nc3ccccc3N)cc2CC1=O ?
Vaccinia stage: -1; Vaccinia stage Venus: -9

What do the screens show for `C[C@H](CO)N1C[C@H](C)[C@@H](CN(C)S(=O)(=O)c2cn(C)cn2)Oc2ccc(NC(=O)NC3CCCCC3)cc2C1=O`?
Vaccinia stage: -1; Vaccinia stage Venus: -5

Overlap with the part before: 4 entries; new compounds follow.
What do the screens show for `CC(C)c1cn(CC[C@@H]2CC[C@H](NC(=O)C3CC3)[C@H](CO)O2)nn1`?
Vaccinia stage: 10; Vaccinia stage Venus: 16

Results for C[C@H]1CCCCO[C@H](CN(C)C(=O)Nc2ccc(C(F)(F)F)cc2)[C@@H](C)CN([C@@H](C)CO)C(=O)c2cc(NC(=O)CCC(F)(F)F)ccc2O1 ?
Vaccinia stage: -30; Vaccinia stage Venus: -28

Results for C[C@H](CO)N1C[C@H](C)[C@H](CN(C)Cc2ccncc2)Oc2ccc(NC(=O)CCCCCC(=O)Nc3ccccc3N)cc2CC1=O ?
Vaccinia stage: -1; Vaccinia stage Venus: -9

What do the screens show for `C[C@H](CO)N1C[C@H](C)[C@@H](CN(C)S(=O)(=O)c2cn(C)cn2)Oc2ccc(NC(=O)NC3CCCCC3)cc2C1=O`?
Vaccinia stage: -1; Vaccinia stage Venus: -5

What do the screens show for `C[C@H](CO)N1C[C@H](C)[C@@H](CN(C)CC2CCCCC2)Oc2ccc(NS(=O)(=O)c3ccc(F)cc3)cc2CC1=O`?
Vaccinia stage: inconclusive

What do the screens show for `C[C@@H]1CN([C@H](C)CO)C(=O)c2cc(N(C)C)ccc2O[C@@H]1CN(C)C(=O)Nc1ccc(C(F)(F)F)cc1`?
Vaccinia stage: -1; Vaccinia stage Venus: -5

How did O=C1CCCn2cc(nn2)COC[C@H](c2ccccc2)N1 do in these assays?
Vaccinia stage: 17; Vaccinia stage Venus: 11

Results for NCC[C@H]1CC[C@@H](NC(=O)Cc2ccncc2)[C@@H](CO)O1 ?
Vaccinia stage: 13; Vaccinia stage Venus: 6

How did CO[C@H]1CN(C)C(=O)c2cc(NC(C)=O)ccc2OC[C@H](C)N(C(=O)CN(C)C)C[C@H]1C do in these assays?
Vaccinia stage: -3; Vaccinia stage Venus: 1

Results for C[C@@H]1CN([C@H](C)CO)C(=O)c2cc(NC(=O)Cc3ccccc3)ccc2O[C@@H](C)CCCCO[C@@H]1CN(C)C(=O)CCC(F)(F)F ?
Vaccinia stage: 17; Vaccinia stage Venus: 12

How did CN(C)C(=O)C[C@@H]1CC[C@@H](NC(=O)c2ccc(F)cc2)[C@H](CO)O1 do in these assays?
Vaccinia stage: 6; Vaccinia stage Venus: 2

How did CN(C)CC(=O)Nc1ccc2c(c1)[C@H]1C[C@@H](CC(=O)N3CCN(C)CC3)O[C@H](CO)[C@H]1O2 do in these assays?
Vaccinia stage: 10; Vaccinia stage Venus: 11

Results for O=S(=O)(N[C@@H]1CC[C@@H](CCn2cc(-c3cccnc3)nn2)O[C@@H]1CO)c1ccc(F)cc1 ?
Vaccinia stage: 1; Vaccinia stage Venus: 2

How did C[C@@H]1CN([C@H](C)CO)S(=O)(=O)c2ccc(C#Cc3ccccc3)cc2O[C@H]1CN(C)C do in these assays?
Vaccinia stage: -34; Vaccinia stage Venus: -29

What do the screens show for `C[C@@H]1CN([C@@H](C)CO)C(=O)c2cccc(NS(=O)(=O)c3cccs3)c2O[C@H]1CN(C)C(=O)Nc1ccc2c(c1)OCO2`?
Vaccinia stage: 12; Vaccinia stage Venus: 7

What do the screens show for `CC(C)CC#Cc1cnc2c(c1)C(=O)N([C@H](C)CO)C[C@H](C)[C@@H](CN(C)C(=O)Cc1ccccc1)O2`?
Vaccinia stage: -22; Vaccinia stage Venus: -26

Structural class, the compounds so far containing two or more sulfur atoms.
Results for CCS(=O)(=O)N1CCC2(CC1)CN(S(=O)(=O)c1ccc(C)cc1)[C@H](CO)c1[nH]c3cc(OC)ccc3c12 ?
Vaccinia stage: 7; Vaccinia stage Venus: -11

What do the screens show for `C[C@@H]1CCCCO[C@@H](CN(C)S(=O)(=O)c2ccc(F)cc2)[C@@H](C)CN([C@H](C)CO)C(=O)c2cc(NS(=O)(=O)c3cn(C)cn3)ccc2O1`?
Vaccinia stage: 5; Vaccinia stage Venus: 8

What do the screens show for `C[C@@H]1CN([C@@H](C)CO)C(=O)c2cccc(NS(=O)(=O)c3cccs3)c2O[C@H]1CN(C)C(=O)Nc1ccc2c(c1)OCO2`?
Vaccinia stage: 12; Vaccinia stage Venus: 7

Other entries
Results for CC(C)NC(=O)N(C)C[C@@H]1Oc2c(NS(=O)(=O)c3cn(C)cn3)cccc2C(=O)N([C@H](C)CO)C[C@H]1C ?
Vaccinia stage: 10; Vaccinia stage Venus: 9

Results for C[C@H](CO)N1C[C@H](C)[C@H](CN(C)CC2CCCCC2)Oc2ccc(NC(=O)Nc3ccc(F)cc3)cc2C1=O ?
Vaccinia stage: -32; Vaccinia stage Venus: -21

What do the screens show for `C[C@@H]1CN([C@H](C)CO)C(=O)c2cc(NC(=O)C3CCCCC3)ccc2O[C@@H](C)CCCCO[C@H]1CN(C)C(=O)Nc1cccc2ccccc12`?
Vaccinia stage: 5; Vaccinia stage Venus: 2

What do the screens show for `O=C(C[C@H]1CC[C@H](NS(=O)(=O)c2ccc(F)cc2)[C@H](CO)O1)NCc1ccccc1F`?
Vaccinia stage: 2; Vaccinia stage Venus: -3

What do the screens show for `O=C1CNC[C@H]2[C@H](c3ccc(C4=CCCCC4)cc3)[C@H](CO)N12`?
Vaccinia stage: -18; Vaccinia stage Venus: -16

How did C/C=C/c1cnc2c(c1)C(=O)N([C@@H](C)CO)C[C@@H](C)[C@@H](CN(C)S(=O)(=O)c1ccc(F)cc1)O2 do in these assays?
Vaccinia stage: 8; Vaccinia stage Venus: 5

What do the screens show for `CC(C)C[C@@H]1COCc2cn(nn2)CCCC(=O)N1`?
Vaccinia stage: 15; Vaccinia stage Venus: 10

What do the screens show for `C[C@@H]1CN([C@@H](C)CO)C(=O)c2cc(-c3cccc(F)c3)cnc2O[C@@H]1CN(C)Cc1ccncc1`?
Vaccinia stage: -3; Vaccinia stage Venus: 2

What do the screens show for `O=C(NCC1CC1)[C@@H]1[C@@H](CO)[C@@H]2Cn3c(ccc(-c4ccccc4F)c3=O)[C@H]1N2Cc1cccnc1`?
Vaccinia stage: -1; Vaccinia stage Venus: 1

What do the screens show for `COCC(=O)N(C)C[C@H]1Oc2cc(-c3ccncc3)ccc2S(=O)(=O)N([C@@H](C)CO)C[C@H]1C`?
Vaccinia stage: 3; Vaccinia stage Venus: -4

What do the screens show for `C[C@@H]1CN([C@H](C)CO)C(=O)c2cc(C#CC(C)(C)O)cnc2O[C@@H]1CN(C)C(=O)C1CCOCC1`?
Vaccinia stage: 23; Vaccinia stage Venus: 3

How did C[C@@H]1CN([C@@H](C)CO)C(=O)c2cc(NC(=O)Cc3cn(C)c4ccccc34)ccc2O[C@@H]1CN(C)S(=O)(=O)c1ccccc1 do in these assays?
Vaccinia stage: -19; Vaccinia stage Venus: -9

What do the screens show for `C[C@H](CO)N1C[C@H](C)[C@@H](CN(C)C(=O)Nc2cccc3ccccc23)Oc2c(NS(=O)(=O)c3cccs3)cccc2C1=O`?
Vaccinia stage: 6; Vaccinia stage Venus: 6

How did C[C@H]1CN([C@@H](C)CO)C(=O)Cc2cc(NC(=O)Cc3ccccc3)ccc2O[C@H]1CN(C)Cc1ccc(Cl)c(Cl)c1 do in these assays?
Vaccinia stage: inconclusive

Results for Cc1ccc(S(=O)(=O)N(C)C[C@@H]2OCCCC[C@@H](C)Oc3ccc(NC(=O)CCC(F)(F)F)cc3C(=O)N([C@H](C)CO)C[C@@H]2C)cc1 ?
Vaccinia stage: 16; Vaccinia stage Venus: 7

Results for CCCN1C[C@H](C)[C@H](OC)CN(C)C(=O)c2ccc(NC(=O)CC(F)(F)F)cc2OC[C@H]1C ?
Vaccinia stage: -8; Vaccinia stage Venus: -2

What do the screens show for `CCC(=O)N1[C@@H](CO)[C@@H]2c3ccccc3N(C(=O)NC(C)C)C[C@@H]21`?
Vaccinia stage: -4; Vaccinia stage Venus: -3

What do the screens show for `CS(=O)(=O)Nc1ccc2c(c1)[C@@H]1C[C@@H](CC(=O)NCc3ccccn3)O[C@H](CO)[C@@H]1O2`?
Vaccinia stage: 15; Vaccinia stage Venus: 14

What do the screens show for `O=C([C@H]1[C@H](CO)[C@H]2Cn3c(ccc(-c4cccnc4)c3=O)[C@H]2N1CCC(F)(F)F)N1CCOCC1`?
Vaccinia stage: 20; Vaccinia stage Venus: 10

Results for COc1ccccc1-c1ccc([C@H]2[C@H](C#N)N[C@@H]2CO)cc1 ?
Vaccinia stage: -25; Vaccinia stage Venus: -27

Results for C[C@H]1CCCCO[C@H](CN(C)C(=O)NC2CCCCC2)[C@@H](C)CN([C@@H](C)CO)C(=O)c2cc(NS(=O)(=O)c3cccs3)ccc2O1 ?
Vaccinia stage: -8; Vaccinia stage Venus: -11
